SARS PLpro yeast: qHTS of Yeast-based Assay for SARS-CoV PLP | S. cerevisiae expressing SARS-CoV PLpro, growth rescue; control for the full effect not named in the record | Potency, µM (titrated, usually from 32.9 µM), without a hit: at the top dose activity, positive = growth rescue | actives 0.19% (n = 330,000) | AID 485353, 2010; note: 0% is about no effect; nearly all actives have a fitted effect of over 55% in size; growth read by luminescence after 48 h
MARV entry inh: qHTS for inhibitors of binding or entry into cells for Marburg Virus | AID 540276, 2011 | Potency, µM (highest dose often 37.8 µM), without a hit: at the highest dose activity change, negative = inhibition, most hits filed as inhibitors | actives 1.8% (n = 300,000) | Marburg virus pseudotyped entry inhibition, cell reporter; control for the full effect not named in the record; about a third of the inactives were read at about 46 µM; active = well fitted inhibition curve with a large enough effect; inconclusive = small, poorly fitted or top-dose-only effect, or effect the other way; inactive = flat fitted curve, though single readings scatter; tested in HEK293 cells; about a fifth of its hits are not listed in these tables; note: % is set by controls: 0 for no effect and ±100 for the full control effect; luciferase read-out
Cruzain inh noDet: qHTS Assay for Promiscuous and Specific Inhibitors of Cruzain (without detergent); actives 2.3% (n = 200,000); Cruzipain (Trypanosoma cruzi), P25779; purified cruzain, Z-FR-AMC fluorescence, no detergent; Potency, µM, inactives show max response, negative = inhibition, most hits filed as inhibitors; active = well fitted curve in the direction sought with a large enough effect; inconclusive = small, poorly fitted or top-dose-only effect, or another doubt; inactive = no such curve, though single readings can be large; an effect the other way counts as inactive or inconclusive;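 note: plate controls were enzyme without inhibitor for no effect and buffer without enzyme for full effect; nearly all actives have a fitted effect of over 40% in size; top concentration of the series not given in the record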
Target sequence (P25779 123-467 limits assumed): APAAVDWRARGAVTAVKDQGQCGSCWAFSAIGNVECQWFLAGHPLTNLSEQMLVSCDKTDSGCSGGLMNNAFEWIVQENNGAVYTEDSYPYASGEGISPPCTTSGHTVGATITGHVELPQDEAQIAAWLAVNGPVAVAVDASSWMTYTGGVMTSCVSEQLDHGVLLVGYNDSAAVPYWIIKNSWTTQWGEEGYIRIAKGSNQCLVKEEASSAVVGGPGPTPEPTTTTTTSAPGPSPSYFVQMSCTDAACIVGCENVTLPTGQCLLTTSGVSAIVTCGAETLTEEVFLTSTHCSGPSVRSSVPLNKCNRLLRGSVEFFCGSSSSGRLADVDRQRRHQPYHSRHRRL
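Purified cruzain at 1.5 nM, pre-incubated 15 min with compound at room temperature in 100 mM sodium acetate pH 5.5, 5 mM DTT, 0.00005% Triton X-100. Reaction started with 2 uM Z-FR-AMC; AMC fluorescence increase over 60 s gives rate.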
NS1 function inh: qHTS Assay for Inhibitors of Influenza NS1 Protein Function. S. cerevisiae slowed by influenza A NS1, growth recovery by OD600. Potency, µM (doses to about 46.1 µM), inactives show at the highest dose activity, positive = more growth. actives 0.4% (n = 270,000). AID 2326, 2010; note: actives are rising curves; nearly all actives have a fitted effect of over 50% in size
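Recovery from NS1-induced slow growth read by OD600 in budding yeast switched to galactose assay medium (pH 6.0, -URA) at 1:100 dilution. Compound 23 nl per well; the matching strain lacking NS1 serves as control.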
Cruzain inh Det: qHTS Assay for Promiscuous and Specific Inhibitors of Cruzain (with detergent) | Cruzipain (Trypanosoma cruzi), P25779 | purified cruzain, Z-FR-AMC fluorescence, 0.01% Triton | Potency, µM, for inactives: max response, negative = inhibition, hits mostly inhibitors | actives 0.43% (n = 200,000); active = well fitted curve in the direction sought with a large enough effect; inconclusive = small, poorly fitted or top-dose-only effect, or another doubt; inactive = no such curve, though single readings can be large; an effect the other way counts as inactive or inconclusive;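 note: plate controls were neutral wells for no effect and buffer without enzyme for full effect; nearly all actives have a fitted effect of over 40% in size; top concentration of the series not given in the record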
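Compounds were screened in titration against cruzain (1.5 nM) with 0.01% Triton X-100 to counter colloidal aggregation. Activity was the AMC fluorescence increase over 60 s after adding 2 uM Z-FR-AMC at pH 5.5.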
Lassa entry inh: qHTS for Inhibitors of binding or entry into cells for Lassa Virus | Lassa virus pseudotype entry inhibition, cell reporter; control for the full effect not named in the record | Potency, µM (top dose mostly 37.9 µM), for inactives: top-dose activity change, negative = inhibition, most hits filed as inhibitors | actives 1.2% (n = 300,000) | AID 540256, 2011; active means well fitted inhibition curve with a large enough effect; inconclusive means small, poorly fitted or top-dose-only effect, or effect the other way; inactive means flat fitted curve, though single readings scatter; tested in HEK293 cells; note: % is set by controls: 0 for no effect and ±100 for the full control effect; nearly all actives have a fitted effect of over 50% in size; luciferase read-out
RE007 growth inh: qHTS Assay for Inhibitors of the HIV-1 protein Vpr; S. pombe RE007 Vpr strain, BacTiter-Glo ATP luminescence, 24 h; control for the full effect not named in the record; Potency, µM (top dose mostly 92.2 µM), for the others: at the highest dose activity change, negative = less growth; actives 0.21% (n = 360,000); active = well fitted falling curve with a large enough effect; inconclusive = small, poorly fitted or top-dose-only effect; inactive = no such curve, though single readings can be large or run the other way;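 note: % is set by controls: 0 for no effect and ±100 for the full control effect; nearly all actives have a fitted effect of over 50% in size; the assay follows cell death caused by Vpr and the record does not say whether a fall means rescue or toxicity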
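Fission yeast strain RE007, carrying one chromosomally integrated HIV-1 vpr copy, was seeded at OD 0.01 in PMG+AL medium with 23 nL pinned compound. After 24 h at 30 °C and 99% humidity, viability was read by BacTiter-Glo luminescence.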
2A StopGo: High Throughput Screening for Foot and Mouth Disease Virus Antivirals; human cells with a luciferase reporter of 2A StopGo recoding; control for the full effect not named in the record; Potency, µM (highest dose often 57.9 µM), for the others: at the highest dose signal change, negative = less light; actives 1.2% (n = 410,000); AID 1159524, 2015; active = well fitted falling curve with a large enough effect; inconclusive = small, poorly fitted or top-dose-only effect; inactive = no such curve, though single readings can be large or run the other way; tested in HEK293T cells; note: % is set by controls: 0 for no effect and ±100 for the full control effect; nearly all actives have a fitted effect of over 45% in size; luciferase light after 4 h
* hit, by the source's call; ? = inconclusive; . = not tested or not shown; & = joins results of further samples; [ ] = dose if it differs, or a comment. Unless noted, calls come from the whole dose curve; as a rule, active means well fitted rising curve with a large enough effect; inconclusive means small, poorly fitted or top-dose-only effect; inactive means no such curve, though single readings can be large or run the other way. Potency is the fitted concentration of half-maximal effect.

structure	SARS PLpro yeast	MARV entry inh	Cruzain inh noDet	NS1 function inh	Cruzain inh Det	Lassa entry inh	RE007 growth inh	2A StopGo
CC(=O)c1ccc(N2CCN(CC(=O)N(C3CC3)C3CCS(=O)(=O)C3)CC2)c(F)c1 (stereo not given)	-13.1%	4.7%	.	.	.	12.3%	-10.2%	0.8%
CCO/C=C/C(O)(CNC(=O)COc1ccccc1F)C(F)(F)F (stereo not given)	3.6%	-0.1%	15.1%	-2.2%	3.3%	7.4%	7.7%	-8.6%
CCC(=O)c1ccc(OCC(=O)OCC(=O)NCCCc2ccccc2)cc1	4.5%	7.9%	.	.	.	-9.4%	-10.1%	-23.0%
CN1C(=O)c2ccccc2Sc2ccc(C(=O)O)cc21	0.1%	4.6%	.	-1.3%	.	?	-21.1%	-3.8%
COC(=O)c1ccc2c(=O)n3nc(Nc4ccc(F)cc4F)sc3nc2c1	.	.	-0.9%	.	3.0%	2.7%[46.1 µM]	.	-4.0%
Cc1ccc(N(C(=O)C(F)(F)F)C(C(=O)NC2CCCCC2)c2cccs2)cc1 (stereo not given)	-1.9%	-7.4%	1.7%	?	0.8%	-32.8%	-12.4%	.
O=C(c1n[nH]c(=O)c2ccccc12)N1CCN(c2ccccc2)CC1	-0.1%	-25.8%[46.1 µM]	5.1%	-2.0%	3.2%	30.9%	0.6%	1.1%
Cn1c(CCN2CCCC2)nc2cc(NS(=O)(=O)c3ccccc3)ccc21	-2.1%	.	.	-2.9%	.	.	-7.5%	19.1%
CCCCCN1CC(O)=C(c2ccccc2)C1=N	16.4%	2.0%	-0.6%	1.4%	1.1%	5.7%	4.0%	10.6%
O=C(O)/C=C/C(=O)N1CCc2ccccc21	0.5%	-1.6%	.	4.2%	.	-19.2%	-25.3%	17.4%
CC(C)n1cc(NC(=O)c2cc(-c3ccccc3)on2)cn1	-8.1%	?	-7.9%	-141.0%	-3.8%	-6.5%	-17.6%	50.8%[activator]
CCN(CC(=O)Nc1c(F)cccc1F)C(=O)c1csc2c1CCCC2	-1.9%	7.9%	.	.	.	-4.4%	6.6%	-20.3%
COc1ccc(NC(=O)C(=O)NCCCn2ccnc2)cc1	-1.1%	-3.5%[46.1 µM]	.	6.2%	.	?	-16.5%	3.9%
Nn1c(SCC(=O)Nc2nccs2)nnc1-c1ccco1	2.4%	19.3%	.	.	.	5.5%	1.5%	-27.0%
CCCCC(=O)Nc1ccc(C(=O)NNC(=O)CCCOc2ccc(Cl)cc2Cl)cc1	-11.8%	1.2%	?	-14.8%	-1.3%	19.2%	5.7%	-14.0%
COc1cccc(C(=O)NC2CCN(CC(=O)Nc3ccccc3Cl)CC2)c1	-2.0%	?	.	0.2%	.	?	-8.4%	-29.6%
Cc1cccc(-n2ncc3c(N(C)C4CCCCC4)ncnc32)c1	-0.2%	.	.	-2.1%	.	.	2.9%	17.8µM*
CCOC(=O)/C(N)=C/c1ncc(C(F)(F)F)cc1Cl	-2.3%	7.3%[46.1 µM]	-2.7%	-1.8%	-4.5%	-0.3%	-1.5%	34.5%[activator]
Cc1cc(C(F)(F)F)c2c(N)c(C(=O)NC3CC3)sc2n1	1.3%	-16.2%[46.1 µM]	.	4.8%	.	-9.2%[46.1 µM]	-6.7%	2.4%
NC(=O)c1c(NC(=O)c2ccccc2)sc2c1CCCC2	-1.1%	.	.	1.0%	.	.	-10.6%	38.0%[activator]
CSCCC(NC(=O)c1ccc([N+](=O)[O-])cc1Cl)C(=O)OC1CCCCC1=O (stereo not given)	-1.9%	?	.	21.7%	.	8.6%[46.1 µM]	6.1%	-0.9%
COc1ccc(C2NC(=O)N(C)C3=C2C(=O)CC(C)(C)C3)cc1OC (stereo not given)	19.1%	-19.8%	-2.0%	-6.7%	-1.0%	4.4%	0.5%	9.0%
O=C(Nc1ccc(OC(=O)N2CCCC2)cc1)N1CCOCC1	-20.4%	9.0%	0.1%	0.5%	1.5%	7.5%	-4.4%	-0.3%
Cn1cccc1/C=C1\SC(=S)N(NC(=O)c2cccc(Cl)c2)C1=O	-36.3%	3.0%	?	8.5%	-5.0%	-4.0%	82.0%	-3.8%
CCOCCCNS(=O)(=O)c1ccc2c(c1)CCN2C(C)=O	3.6%	-16.8%	0.6%	-3.5%	4.2%	3.3%	24.3%	-2.9%
Cc1ccc(S(C)(=O)=N/C=C2\C(=O)c3sccc3N(C)S2(=O)=O)cc1 (stereo not given)	2.8%	.	.	6.0%	.	.	4.9%	-25.4%
C/C=C/C=C/C(=O)N1CC2(CC(c3cccc(NC(=O)/C=C/C)c3)=NO2)C[C@@H]1C(N)=O (stereo not given in full)	2.9%	3.7%	.	8.5%	.	.	8.9%	-12.4%
Nc1nonc1-c1nc2ccccc2n1CC(=O)O	10.5%	-0.3%	-17.1%	6.5%	1.0%	5.3%	-4.0%	.
O=C(Cc1ccccc1F)NCC(c1ccco1)N1CCCCC1 (stereo not given)	0.9%	-37.7%[46.1 µM]	.	.	.	5.4%[46.1 µM]	-13.3%	16.4%
Cc1cccc(NC(=O)c2ccc(C)c(S(=O)(=O)N3CCCCC3)c2)n1	-3.7%	-28.6%	.	.	.	6.0%	-23.9%	-3.6%
CCN(c1cccc(C)c1)S(=O)(=O)c1ccc2c(c1)N(C(C)=O)CCS2	4.1%	?	.	-9.4%	.	?	8.5%	-16.0%
CSc1nc(-c2ccccc2)nn1S(=O)(=O)c1ccc(Cl)cc1	2.5%	-14.8%	-1.5%	?	0.9%	-2.3%	16.9%	6.8%
Cc1c(Cl)cccc1NS(=O)(=O)c1cccc2nsnc12	-0.3%	5.7%	.	-2.0%	.	-11.8%	-4.6%	13.3%
CCCN(C(=O)CSCc1c(C)noc1C)c1c(N)n(Cc2ccccc2)c(=O)[nH]c1=O	-0.7%	2.3%[46.1 µM]	.	.	.	-15.8%	2.6%	-8.5%
CCN1C(=NCC2CC2)N[C@@H](c2cccc(C(F)(F)F)c2)C(C(=O)OC)=C1C	1.5%&-2.3%	.	.	-15.4%&-6.3%	.	.	-39.5%	?
O=C(CN1C(=O)NC2(CCCCCCC2)C1=O)Nc1cccc(Br)c1	-1.9%	-45.2%	.	.	.	-14.6%	-0.5%	-16.1%
CC1CCCCC1NC(=O)CN1CCC(NC(=O)c2cccc(F)c2)CC1 (stereo not given)	1.1%	?	.	-4.8%	.	1.4%	-5.5%	11.6%
O=C(Nc1cc(Cl)ccc1N1CCOCC1)C1=COCCO1	0.9%	?	.	.	.	-12.6%	?	11.0%
Cc1ccc(NC(=O)CCc2nc3cccnc3n2-c2ccccc2)cc1Cl	.	-1.1%[46.1 µM]	?	.	-2.3%	-18.0%[46.1 µM]	.	-22.4%
CCCCN1C(N)=NC[C@H]1Cc1ccc(O)cc1	0.1%	.	.	1.9%	.	.	-10.7%	-4.9%
Cc1[nH]c2ccccc2c1/C=N/NC(=O)CNC(=O)c1ccccc1	0.1%	?	.	5.8%	.	-24.4%[46.1 µM]	4.3%	12.5%
Cc1ccc(NC(=O)C2CCN(S(=O)(=O)c3cccnc3)CC2)cc1C	-1.4%	.	.	0.7%	.	.	10.8%	-21.9%
O=Nc1[nH]c(=O)c(/C=C(\O)c2ccccc2)nc1NO	0.4%	?	.	3.9%	.	?	-0.8%	23.5%
CCOc1ccc(C(=O)Nc2ccc3c(c2)OCCO3)cc1	-0.1%	?	.	-18.8%	.	?	-3.1%	-20.1%
COc1ccc(NC(=O)/C=C/c2ccc(F)cc2)cn1	-27.8%	7.2%	?	-29.0%	-4.5%	24.0%	-7.5%	6.5%
COc1cc(C(=O)Nc2cccc(-c3nc4cc(C)ccc4o3)c2C)cc(OC)c1OC	-1.6%	-9.0%	-5.6%	-4.3%	-0.2%	-17.8%	-5.6%	7.1%
Cc1cccc(C(=O)c2ccccc2C(=O)O)c1	0.4%	11.5%	.	-0.4%	.	1.0%	0.1%	2.1%
CC(C)(C)c1ccc(C(=O)NC2(C(F)(F)F)NC(=O)N(CCc3ccccc3)C2=O)cc1 (stereo not given)	.	?	4.7%	.	-1.0%	-0.3%[46.1 µM]	.	-25.0%
CCCCn1c(N)c(N(CCC(C)C)C(=O)c2ccccc2C)c(=O)[nH]c1=O	-8.0%	-11.6%[46.1 µM]	.	-2.1%	.	0.2%[46.1 µM]	-1.0%	5.3%
O=c1ccc(-c2n[nH]c(=S)n2-c2ccc(F)c(Cl)c2)n[nH]1	-0.3%	2.6%	.	.	.	9.1%	41.2%	6.0%
CC1(C)C2CCC1(CS(=O)(=O)NCc1ccc(S(N)(=O)=O)cc1)C(=O)C2 (stereo not given)	-5.0%	2.8%[46.1 µM]	.	2.1%	.	20.5%	-9.9%	-3.5%
Cc1cc(C)c(S(=O)(=O)NCCCN2CCOCC2)cc1Br	0.3%	1.2%	-1.5%	6.5%	0.2%	-0.2%	-2.5%	.
CCc1ccc(CCC(=O)Nc2sc3c(c2C#N)CCCC3)o1	-6.3%	2.31µM*	25.1µM*	?	-0.5%	?	9.2%	-6.6%
CCn1c(NC)cc(=O)n(C)c1=O	26.3%	-5.1%	7.3%	7.8%	1.8%	-0.2%	8.1%	-16.2%
